ClpP mod = qHTS Assay for Activators of ClpP | purified B. subtilis ClpP, FRET peptide cleavage, 20 min | Potency, µM (top dose mostly 57.5 µM), for inactives: top-dose activity change, negative = active | hit rate 1.9% among 340,000 | AID 651965, 2013; active = well fitted falling curve with a large enough effect; inconclusive = small, poorly fitted or top-dose-only effect; inactive = no such curve, though single readings can be large or run the other way; further: potency means the concentration at half of the fitted maximal effect; the source files actives as falling curves though it sought activators and does not explain the sign; nearly all actives have a fitted effect of over 65% in size; many hits overshoot -100%
Target sequence (P80244 whole entry, looked up): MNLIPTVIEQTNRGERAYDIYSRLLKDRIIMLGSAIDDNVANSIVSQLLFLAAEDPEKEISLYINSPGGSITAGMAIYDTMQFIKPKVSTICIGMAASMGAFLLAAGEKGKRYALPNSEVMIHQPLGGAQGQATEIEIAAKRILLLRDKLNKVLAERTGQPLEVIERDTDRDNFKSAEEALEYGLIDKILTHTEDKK
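Purified B. subtilis ClpP, 10 microg/mL final in Tris/HCl pH8 with KCl, BSA, glycerol and Tween-20, cleaved an Abz/nitrotyrosine-quenched decapeptide. Fluorescence (ex 320, em 430) was read at 0 and 20 min at room temperature. Delta was normalized to 5.8 microM ADEP and DMSO/no-enzyme controls.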
TRPML1 blocker = inhibitors of human TRPML1 channel. TRPML1-inducible cells, Ca2+ dye fluorescence, FDSS; stronger effect = lower value; inhibition of EC80 agonist-evoked calcium signal. Q9GZU1. hit rate 0.02% among 390,000. activity change, negative = inhibition, % (no concentration beside the values); in the data active means activity change below about -50%; inconclusive means about -30% to -50%; inactive means above about -30%;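 further: stimulus is agonist 54-4 at its EC80 concentration; on the % scale 0 is the no-effect control and ±100 the full control effect; compound concentration not given in the record; the text of the record puts the active cut at -80%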
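Tet-induced TRPML1-DL cells loaded with Ca8 no-wash calcium dye were read kinetically on FDSS. Compound addition was followed by EC80 agonist 54-4 (4 uM final); inhibition was read over 110 s.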
gsp antag = gsp mutant antagonism. hit rate 0.4% among 340,000. gsp-mutant cells, cAMP HTRF, 30 min; control for the full effect not named in the record. Potency, µM (top dose mostly 76.9 µM), without a hit: at the top dose activity change, negative = inhibition, usual class: inhibitors; active = falling curve of any shape with a large fitted effect; inconclusive = falling curve, mostly with a smaller effect; inactive = flat or rising curve; cell line not stated here;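 further: intracellular cAMP measured with PDE inhibitor Ro 20-1724 present during compound exposure; potency means the concentration at half of the fitted maximal effect; on the % scale 0 is the no-effect control and ±100 the full control effect; nearly all actives have a fitted effect of over 65% in size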
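HTRF cAMP measurement after 30 min RT detection following 30 min, 37C compound treatment alongside […] (added as 300 uM solution) in G418-selected cells seeded at 2000/well and grown 16–24 h.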
TRPV1 PAM = potentiators of human vanilloid receptor 1 (TRPV1); potentiation, % at 8.33 µM; hit rate 0.02% among 320,000; Q8NER1; TRPV1-expressing cells, Fluo-8 calcium influx, capsaicin EC20 potentiation; host cell line not named in the record; control for the full effect not named in the record; active means potentiation above 80%; inconclusive means 30% to 80%; inactive means below 30%; further: 0% is about no effect
Target sequence (Q8NER1 whole entry, looked up): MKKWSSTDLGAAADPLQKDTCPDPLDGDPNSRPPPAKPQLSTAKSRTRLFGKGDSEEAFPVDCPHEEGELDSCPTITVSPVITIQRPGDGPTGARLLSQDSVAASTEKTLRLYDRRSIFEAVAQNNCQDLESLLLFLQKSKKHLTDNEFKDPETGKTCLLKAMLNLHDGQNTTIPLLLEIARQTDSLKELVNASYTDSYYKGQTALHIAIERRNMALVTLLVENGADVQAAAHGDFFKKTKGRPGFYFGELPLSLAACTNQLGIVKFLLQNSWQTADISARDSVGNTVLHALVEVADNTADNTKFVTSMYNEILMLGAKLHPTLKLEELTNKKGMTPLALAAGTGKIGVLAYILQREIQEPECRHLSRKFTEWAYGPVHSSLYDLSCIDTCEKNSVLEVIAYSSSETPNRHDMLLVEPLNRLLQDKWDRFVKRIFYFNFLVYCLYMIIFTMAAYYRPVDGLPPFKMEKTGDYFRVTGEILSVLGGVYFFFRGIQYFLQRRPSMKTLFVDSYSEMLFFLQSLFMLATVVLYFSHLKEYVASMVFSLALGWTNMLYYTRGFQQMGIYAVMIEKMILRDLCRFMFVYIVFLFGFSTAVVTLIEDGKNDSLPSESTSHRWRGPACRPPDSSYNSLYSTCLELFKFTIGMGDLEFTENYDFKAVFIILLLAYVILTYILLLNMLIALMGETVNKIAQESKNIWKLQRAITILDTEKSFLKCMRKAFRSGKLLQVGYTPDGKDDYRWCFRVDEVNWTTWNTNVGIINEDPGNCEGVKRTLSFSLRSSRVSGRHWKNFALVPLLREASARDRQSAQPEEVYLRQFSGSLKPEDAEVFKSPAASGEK
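Fluo-8 calcium influx in TRPV1-expressing cells, kinetic read (ex 480/em 520 nm). Compound added and read 3 min for agonist activity, followed by capsaicin at EC20 final and 2 min further read for enhancement.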
Sfp inh = blocks B. subtilis Sfp PPTase activity; Q9F4F7; Potency, µM, for the others: max response, negative = inhibition, actives largely listed as inhibitors; Biochemical Sfp PPTase activity, qHTS; AID 1490; hit rate 3.5% among 310,000; active means well fitted inhibition curve with a large enough effect; inconclusive means small, poorly fitted or top-dose-only effect, or another doubt; inactive means no such curve, though single readings can be large or run the other way;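 further: the enzyme is Sfp with the accession as filed and its product quenches rhodamine fluorescence; potency means the concentration at half of the fitted maximal effect; 0% = enzyme reaction without inhibitor and -100% = no enzyme wells; top concentration of the series not given in the record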
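After 15 min at room temperature with compound, 15 nM Sfp received 5 uM rhodamine-CoA plus 12.5 uM BHQ-2-ybbR (50 mM Hepes pH 7.6, 10 mM MgCl2). Rate came from the fluorescence difference over 30 min, ex 525/em 598 nm.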
Menin MLL FP FL = displaces fluorescein MLL peptide from human menin; Fluorescence polarization, fluorescein-MLL peptide displacement from menin; FP activity change, % at 61.4 µM; 290,000 tested, under 10 active; inconclusive = falling polarisation curve, or a change in total fluorescence; inactive = total fluorescence flat and polarisation flat or rising; no compound was filed as active; the % refers to the polarisation; negative = inhibition;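 further: % of control where 0% means no effect; inhibitors lower the polarisation; unlabelled MLL peptide was the positive control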
gsp agonist = agonists of gsp mutant (McCune-Albright syndrome) | gsp mutant cells, cAMP HTRF, 30 min; control for the full effect not named in the record | Potency, µM (doses to about 76.9 µM), for the others: at the highest dose activation (cAMP increase), hits mostly activators | hit rate 0.13% among 340,000; active = well fitted activation curve with a large enough effect; inconclusive = small, poorly fitted or top-dose-only effect, or another doubt; inactive = no such curve, though single readings can be large or run the other way; cell line not stated here;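 further: phosphodiesterase inhibitor Ro 20-1724 added with compounds to block cAMP breakdown; potency means the concentration at half of the fitted maximal effect; nearly all actives have a fitted effect of over 60% in size; about a fifth of the inactives were tested at one dose only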
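Cells in DMEM/10% FBS with G418 were pretreated with compounds in DMSO plus […] (300 uM stock) for 30 min at 37C. cAMP was measured by HTRF (cAMP-d2 plus anti-cAMP antibody-K) after 30 min at room temperature.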
* = called active by the depositor; ? = inconclusive; · = not tested or not shown; & = joins results of further samples; [ ] = remark or other dose.

SMILES	Sfp inh	TRPML1 blocker	gsp agonist	gsp antag	ClpP mod	TRPV1 PAM	Menin MLL FP FL
FC(F)(F)c1nc2ccccc2n2c(-c3c(Cl)cccc3Cl)nnc12	15%	-26	0%	2%	-14%	10	5.8
CC(C)C(NC(=O)/C(=C/c1ccco1)NC(=O)c1ccc(Br)o1)C(=O)O (stereo not given)	?	-1	-14%	8%	-1.0%	-9	?
Oc1c(CN2CCN(c3ccccn3)CC2)cc(Cl)c2cccnc12	-10%	-7	3%	-14%	1.6%	7	1.5
Cc1ccc(NS(=O)(=O)c2c(C)nc3sccn3c2=O)c(C)c1	14%	-9	?	-13%	-1.2%	1	5.0
COc1ccc(-n2c(=S)[nH]c3cc(C(=O)NCc4ccco4)ccc3c2=O)c(OC)c1	10%	-5	-15%	-13%	-3.0%	1	0.8
Cc1ccc2nc(NC(=O)c3ccc(Br)o3)sc2c1	13%	-10	-20%	0%	-25%	-11	3.6
OCC[C@H]1C[C@H](O)[C@@H](O)[C@]2(Cc3ccccc3O2)O1	·	22	-58%[inhibitor]	11%	1.3%	1	·
Cc1cc(Nc2cccc([N+](=O)[O-])c2)n2c(nc3ccccc32)c1C#N	5%	5	-49%	?	-8.2%	-7	1.3
O=C(NC1CCN(C(=S)Nc2ccc(Cl)cc2)CC1)C1CCCCC1	7%	30	-5%[15.4 µM]	5%	·	-10	-15
O=C(C[n+]1ccccc1)c1ccc(Cl)cc1	5%	-8	-4%	-1%	1.2%	1	-7.2

(next part)
SMILES	Sfp inh	TRPML1 blocker	gsp agonist	gsp antag	ClpP mod	TRPV1 PAM	Menin MLL FP FL
CCCCc1ncc(CN2CCC(n3nccc3NC(=O)c3ccccc3Cl)CC2)[nH]1	11%	-24	?	5%	-3.8%	3	·
O=C(NN=C(Cc1ccccc1)Cc1ccccc1)c1ccccc1O	18%	0	0%	2%	·	2	0.3
CC(=O)N1CCN(S(=O)(=O)c2cccc(C(=O)Nc3nc4c(s3)CCCC4)c2)CC1	12%	-1	-45%[inhibitor]	3%	-1.2%	-9	-1.0
Cc1onc(-c2ccccc2Cl)c1C(=O)Nc1nnc(-c2ccc(F)cc2)s1	34%[activator]	3	?	-22%	-24%	0	4.0
N#CCCCSC1=C(C#N)C(c2ccccc2Cl)CC(=O)N1 (stereo not given)	2%	-6	-10%	5%	-0.7%	5	-2.2
Cc1ccccc1NC(=S)N/N=C1\CC(C)(C)Oc2ccc(O)cc21	17%	-13	-7%	-8%	?	13	-0.3
O=C(COC(=O)c1cc(-c2cccc(Br)c2)nc2ccccc12)NCC1CCCO1 (stereo not given)	-25%	-8	19%	?	·	6	1.7
O=C(O)c1sc2cccc(Cl)c2c1Cl	6%	1	42%[15.4 µM]	-9%	·	-8	-3.4
COc1ccccc1NC(=O)/C(=C\c1cccnc1)NC(=O)c1ccccc1	19%	22	-8%[15.4 µM]	4%	1.5%	-4	-0.1
CC(Oc1ccc(Cl)cc1)C(=O)Nc1ccccc1N1CCOCC1 (stereo not given)	·	-5	-31%	-9%	-6.9%	·	·

The list continues:
SMILES	Sfp inh	TRPML1 blocker	gsp agonist	gsp antag	ClpP mod	TRPV1 PAM	Menin MLL FP FL
Cc1ccc(C)c(N2CCN(C(=O)Cc3ccc(-n4c(=O)[nH]c5ccsc5c4=O)cc3)CC2)c1	29%	17	44%	?	-5.3%	-4	1.2
COc1cc(NC(=O)c2cccc(Cl)c2)c(OC)cc1NC(=O)CN1CCOCC1	4%	9	28%	-14%	-4.3%	-4	0.3
CCOc1ccc(NC(=O)c2cccc(-n3cnnn3)c2)cc1	14%	6	-23%	10%	-0.6%	19	-3.2
Cc1ccc2c(c1)C1(OCCCO1)C(=O)N2	10%	-4	-11%[15.4 µM]	1%	?	-9	0.6
O=C(c1cc(F)c(F)cc1Cl)N1CCN(c2ncccn2)CC1	22%	-15	6%	6%	-29%	27	·
COc1cc(/C=N/NC(=O)c2ccc3nc[nH]c3c2)ccc1O	-19%	6	-6%[15.4 µM]	10%	·	?	-10
COc1ccc(OC)c(C(=O)c2ccc(C(=O)Nc3ccccc3)cc2)c1	19%	-4	7%	2%	-0.9%	1	0.8
CNC(=O)NC(=O)C(NC1CCCc2ccccc21)c1ccccc1 (stereo not given)	7%	-8	-1%	3%	0.1%	?	13
CCCCC(=O)Nc1cccc(NC(=S)NC(=O)Cc2ccccc2)c1	1%	-17	2%	7%	-1.8%	17	4.6
O=[N+]([O-])c1ccc(-c2nc(-c3ccncc3)no2)cc1	3%	-10	-10%[15.4 µM]	0%	·	-14	-2.6

Carrying on:
SMILES	Sfp inh	TRPML1 blocker	gsp agonist	gsp antag	ClpP mod	TRPV1 PAM	Menin MLL FP FL
COc1ccc(Oc2coc3cc(OC(=O)/C=C/c4ccc(F)cc4)ccc3c2=O)cc1	23%	-14	-1%	0%	0.5%	0	1.3
COc1ccc(-c2noc(CCC(=O)NC3CCCC3)n2)cc1	9%	-16	?	-6%	·	-9	-0.4
CC(=O)c1ccc(NC(=O)CSc2n[nH]c(-c3cccnc3)n2)cc1	?	-1	-30%	-2%	·	-5	2.0
CCN(CC)S(=O)(=O)c1cccc(-c2nnc(SCC(=O)NC3CCCC3)n2N)c1	6%	21	?	-10%	-1.0%	4	0.9
Cn1c(/C=C/c2cccc([N+](=O)[O-])c2)nc2ccccc2c1=O	19%	3	17%	4%	1.0%	0	-3.4
CC(=O)CSc1nnc(Cc2ccc([N+](=O)[O-])cc2)o1	-26%	9	-16%	7%	0.8%	?	-0.3
COc1ccc(NC(=O)CCNS(=O)(=O)c2ccccc2F)cc1S(N)(=O)=O	17%	13	1%	16%	·	4	0.5
COc1cccc(NC(=O)CN(C)S(=O)(=O)c2ccc3[nH]c(=O)oc3c2)c1	5%	-5	?	-1%	-1.3%	2	·
Cn1nnnc1SCc1nnc(-c2ccccc2Br)o1	8%	-9	1%	4%	?	1	4.2
OCCC1CN(C2CCN(c3ccccc3)CC2)CCN1Cc1ccc(F)c(F)c1 (stereo not given)	-1%	10	?	8%	1.2%	-8	3.3

Additional structures.
SMILES	Sfp inh	TRPML1 blocker	gsp agonist	gsp antag	ClpP mod	TRPV1 PAM	Menin MLL FP FL
CNC(=O)C[C@H]1C(=O)N(c2ccccc2)C[C@@H]1C	·	3	-33%[inhibitor]	·	-1.9%	·	·
Cc1cc(C(=O)N(CCC#N)Cc2cccs2)no1	?	-5	0%[15.4 µM]	-12%	-20%	·	5.4
CC(=O)c1cccc(NC(=O)CSc2n[nH]c(-c3ccncc3)n2)c1	·	-4	?	-10%	1.1%	-9	·
CCN(CC)P(=O)(Nc1ccc(C)cc1Br)c1ccc(N(C)C)cc1NC(=O)c1ccco1 (stereo not given)	-28%	15	-17%[15.4 µM]	-31%	·	-7	-3.0
O=C(COC(=O)c1cc[n+]([O-])cc1)Nc1ccc(Cl)c(C(F)(F)F)c1	·	-19	-8%	7%	-4.2%	·	·
COc1ccccc1NC(=O)CN1CCC(c2nc3ccc(C)cc3[nH]2)CC1	7%	-8	-22%	-9%	·	-10	1.9
CCOc1ccc(S(=O)(=O)Nc2cccc(C(=O)N(C)CC(=O)Nc3ccc(OC)cc3)c2)cc1	·	-6	?	-3%	-2.8%	·	·
COC(=O)c1ccc(NC(=S)N2CCN(C)CC2)cc1	11%	8	3%	9%	-1.0%	2	7.6
CC1CCN(CCc2nc3cc(NS(=O)(=O)c4ccccc4)ccc3n2C)CC1	1%	-7	-25%	2%	-3.8%	-9	2.9
CC(=O)Nc1ccn(C2OC(C(COC(C)=O)NC(=O)C3CCCN3C(=O)OC(C)(C)C)C(OC(C)=O)C2OC(C)=O)c(=O)n1 (stereo not given)	6%	-5	·	·	·	·	6.0

Next part
SMILES	Sfp inh	TRPML1 blocker	gsp agonist	gsp antag	ClpP mod	TRPV1 PAM	Menin MLL FP FL
CCN(CC)c1ccc(C(=O)OCC(=O)N2CCCC2)cc1	16%	1	-1%	0%	·	1	2.0
Cc1ccc(-n2cc(C(=O)c3ccc(N4CCN(C)CC4)cc3)nn2)cc1Cl	4%	-21	-4%	5%	-0.6%	-2	0.7
C=CCNc1cnn(CC(C)=O)c(=O)c1Br	20%	?	-20%	7%	-0.4%	·	-3.7
Oc1cc(-c2ccccc2)c2ccccc2c1	-15%	-4	-6%[15.4 µM]	-12%	·	0	9.0
COC(=O)/C(C#N)=C/c1c(N2CCN(c3ccc(OC)cc3)CC2)nc2c(C)cccn2c1=O	-1%	30	-3%	-23%	-0.2%	6	0.5
Cc1[nH]c2ccccc2c1C1(O)C(=O)N(Cc2ccc3c(c2)OCO3)c2ccccc21 (stereo not given)	-15%	9	8%	27%	-2.4%	4	1.8
CCCCC1=CC2=CC(=O)C(C)(OC(=O)CC)C(=O)C2=CN1CC(C)C (stereo not given)	2%&4%	-13	-51%[inhibitor]	-1%	-2.4%	14	-0.1[11.7 µM]
CN(C)C(CNC(=O)C1CCN(S(=O)(=O)c2cccc(Cl)c2Cl)CC1)c1ccccc1 (stereo not given)	0%	4	0%[15.4 µM]	3%	·	-1	1.1
Cc1ccc2c(CN3CCOCC3)cc(=O)oc2c1	2%	13	33%	-8%	2.5%	-5	4.3
CCOc1cc(NC(=O)c2ccccn2)c(OCC)cc1NC(=O)c1ccccc1	5%	26	7%[15.4 µM]	8%	·	2	-1.6

The listing continues:
SMILES	Sfp inh	TRPML1 blocker	gsp agonist	gsp antag	ClpP mod	TRPV1 PAM	Menin MLL FP FL
O=C(NCC(=O)N(CC1CCCO1)C(C(=O)NC1CCCC1)c1cccnc1)c1ccco1 (stereo not given)	24%	0	-4%	6%	-0.2%	-21	2.3
CCCN(CCC)C(=S)NC1CC2C=CC1C2 (stereo not given)	16%	-27	-41%[inhibitor]	-3%	-0.2%	6	3.5
O=C(c1cccc2ccccc12)N1CCN=C1SCc1ccc([N+](=O)[O-])cc1	-28%	23	-7%	8%	-2.1%	14	7.8
Cc1sc2nc(C3CC3)nc(NCCNS(=O)(=O)c3ccccc3)c2c1C	2%	5	6%	-16%	-1.0%	-7	-1.0
CC(NC(=O)COC(=O)c1ccc(N2CCCC2=O)cc1)c1ccc(F)cc1 (stereo not given)	·	-15	-4%	-5%	-2.3%	·	·

High-throughput results (PubChem BioAssay)
